Source: PubChem BioAssay (National Center for Advancing Translational Sciences (NCATS))
ClpP mod: qHTS Assay for Activators of ClpP; hit rate 1.9% among 340,000; ATP-dependent Clp protease proteolytic subunit (Bacillus subtilis (strain 168)), P80244; purified B. subtilis ClpP, FRET peptide cleavage, 20 min; Potency, µM (series often up to 57.5 µM), inactives show at the highest dose activity change, negative = active; active = well fitted falling curve with a large enough effect; inconclusive = small, poorly fitted or top-dose-only effect; inactive = no such curve, though single readings can be large or run the other way; note: potency is the fitted concentration of half-maximal effect; the source files actives as falling curves though it sought activators and does not explain the sign; nearly all actives have a fitted effect of over 65% in size; many hits overshoot -100%
Target sequence (P80244 whole entry, looked up): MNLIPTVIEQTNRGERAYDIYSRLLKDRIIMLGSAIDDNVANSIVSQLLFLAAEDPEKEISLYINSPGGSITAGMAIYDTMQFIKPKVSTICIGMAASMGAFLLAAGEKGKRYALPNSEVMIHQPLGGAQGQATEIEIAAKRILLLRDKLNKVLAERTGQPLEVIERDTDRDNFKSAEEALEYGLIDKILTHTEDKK
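Purified B. subtilis ClpP, 10 microg/mL final in Tris/HCl pH8 with KCl, BSA, glycerol and Tween-20, cleaved an Abz/nitrotyrosine-quenched decapeptide. Fluorescence (ex 320, em 430) was read at 0 and 20 min at room temperature. Delta was normalized to 5.8 microM ADEP and DMSO/no-enzyme controls.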
Menin MLL FP FL: displaces fluorescein MLL peptide from human menin; AID 1766; FP activity change, % at 61.4 µM; Fluorescence polarization, fluorescein-MLL peptide displacement from menin; 290,000 tested, under 10 active; inconclusive = falling polarisation curve, or a change in total fluorescence; inactive = total fluorescence flat and polarisation flat or rising; no compound was filed as active; the % refers to the polarisation; negative = inhibition;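 note: % of control where 0% means no effect; inhibitors lower the polarisation; unlabelled MLL peptide was the positive control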
TRPV1 PAM: potentiators of human vanilloid receptor 1 (TRPV1) | Q8NER1 | TRPV1-expressing cells, Fluo-8 calcium influx, capsaicin EC20 potentiation; host cell line not named in the record; control for the full effect not named in the record | potentiation, % at 8.33 µM | hit rate 0.02% among 320,000; active means potentiation above 80%; inconclusive means 30% to 80%; inactive means below 30%; note: 0% is about no effect
Target sequence (Q8NER1 whole entry, looked up): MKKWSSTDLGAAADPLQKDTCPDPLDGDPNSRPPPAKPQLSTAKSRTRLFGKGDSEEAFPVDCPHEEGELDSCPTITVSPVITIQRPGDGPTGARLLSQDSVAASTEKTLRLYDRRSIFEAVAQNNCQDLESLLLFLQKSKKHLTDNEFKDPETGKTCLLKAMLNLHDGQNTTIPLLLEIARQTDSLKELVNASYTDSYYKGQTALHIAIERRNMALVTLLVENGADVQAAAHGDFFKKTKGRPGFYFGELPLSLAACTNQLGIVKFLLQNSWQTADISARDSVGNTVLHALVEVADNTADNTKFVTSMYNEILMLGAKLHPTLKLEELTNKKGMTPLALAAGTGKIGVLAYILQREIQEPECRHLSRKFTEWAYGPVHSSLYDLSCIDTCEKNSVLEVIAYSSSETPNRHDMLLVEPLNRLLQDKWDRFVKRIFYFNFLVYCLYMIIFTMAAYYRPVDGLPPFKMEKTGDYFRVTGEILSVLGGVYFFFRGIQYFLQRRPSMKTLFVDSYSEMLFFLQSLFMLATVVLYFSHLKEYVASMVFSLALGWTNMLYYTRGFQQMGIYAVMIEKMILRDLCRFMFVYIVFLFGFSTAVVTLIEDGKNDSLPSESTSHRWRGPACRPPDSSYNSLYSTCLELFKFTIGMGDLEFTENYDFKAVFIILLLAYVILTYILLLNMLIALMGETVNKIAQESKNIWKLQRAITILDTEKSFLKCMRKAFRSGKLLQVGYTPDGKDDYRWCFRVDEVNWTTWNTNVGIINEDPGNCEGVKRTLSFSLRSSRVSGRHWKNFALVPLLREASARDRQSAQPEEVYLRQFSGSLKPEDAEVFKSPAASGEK
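Cells expressing TRPV1 were dye-loaded with Fluo-8 and read kinetically: 10 s baseline, 3 min after compound (agonist portion), then 2 min after EC20 capsaicin (allosteric enhancer portion). Calcium-bound dye fluorescence at 480/520 nm.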
gsp antagonist: gsp mutant antagonism | gsp-mutant cells, cAMP HTRF, 30 min; control for the full effect not named in the record | Potency, µM (highest dose often 76.9 µM), inactives show top-dose activity change, negative = inhibition, most hits filed as inhibitors | hit rate 0.4% among 340,000; active = falling curve of any shape with a large fitted effect; inconclusive = falling curve, mostly with a smaller effect; inactive = flat or rising curve; cell line not stated here;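 note: intracellular cAMP measured with PDE inhibitor Ro 20-1724 present during compound exposure; potency is the fitted concentration of half-maximal effect; % is set by controls: 0 for no effect and ±100 for the full control effect; nearly all actives have a fitted effect of over 65% in size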
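Cells, 2000/well, grown 16–24 h in DMEM 10% FBS with 0.5 mg/ml G418, then compounds plus […] (300 uM addition stock), 30 min at 37C. cAMP read by HTRF (cAMP-d2 and anti-cAMP antibody-K in lysis buffer) after 30 min RT.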
Sfp PPTase inh: inhibitors of Bacillus subtilis Sfp phosphopantetheinyl transferase; Q9F4F7; Biochemical Sfp PPTase activity, qHTS; Potency, µM, for inactives: max response, negative = inhibition, usual class: inhibitors; hit rate 3.5% among 310,000; AID 1490; active = well fitted inhibition curve with a large enough effect; inconclusive = small, poorly fitted or top-dose-only effect, or another doubt; inactive = no such curve, though single readings can be large or run the other way;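 note: the enzyme is Sfp with the accession as filed and its product quenches rhodamine fluorescence; potency is the fitted concentration of half-maximal effect; 0% = enzyme reaction without inhibitor and -100% = no enzyme wells; top concentration of the series not given in the record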
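Step 1, compound plus 15 nM Sfp-PPTase, 15 min, room temperature. Step 2, add rhodamine-CoA (5 uM) and BHQ-2-YbbR (12.5 uM). Step 3, read 525/598 nm fluorescence at 0 and 30 min.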
gsp agonist: agonists of gsp mutant (McCune-Albright syndrome); hit rate 0.13% among 340,000; gsp mutant cells, cAMP HTRF, 30 min; control for the full effect not named in the record; AID 624287; Potency, µM (titrated, usually from 76.9 µM), for the others: at the top dose activation (cAMP increase), hits mostly activators; active = well fitted activation curve with a large enough effect; inconclusive = small, poorly fitted or top-dose-only effect, or another doubt; inactive = no such curve, though single readings can be large or run the other way; cell line not stated here;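 note: phosphodiesterase inhibitor Ro 20-1724 added with compounds to block cAMP breakdown; potency is the fitted concentration of half-maximal effect; nearly all actives have a fitted effect of over 60% in size; about a fifth of the inactives were tested at one dose only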
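Cells stably selected in G418 were plated at 2000/well, grown 16-24 hr, then given compounds in DMSO with the PDE inhibitor […] (300 uM solution added) for 30 min at 37C; cAMP was read by HTRF.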
CtBP-E1A inh: inhibitors of CtBP/E1A interaction | AlphaScreen GST-E1A/His-CtBP binding, 1536-well; hits give low values; control for the full effect not named in the record | activity change, % (no concentration beside the values) | hit rate 0.49% among 340,000 | AID 651724; in the data active means activity change below about -65%; inconclusive means about -30% to -65%; inactive means above about -30%; note: % is set by controls: 0 for no effect and ±100 for the full control effect; compound concentration not given in the record
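AlphaScreen with 125 nM GST-E1A and 125 nM His-CtBP (5X stocks) in Tris pH 8.0, 300 mM NaCl, BSA, Tween 20, TCEP. Compounds preincubated 2 h at 37 deg C, then glutathione donor/nickel acceptor beads added for 1 h at 37 deg C in dark.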
Active calls of the source: *; ? = inconclusive; . = not tested or not shown; & = joins results of further samples; [ ] = remark or other dose.

SMILES	ClpP mod	Menin MLL FP FL	TRPV1 PAM	gsp antagonist	Sfp PPTase inh	gsp agonist	CtBP-E1A inh
O=C(CCSc1nnc(-c2ccco2)o1)Nc1ccc(F)cc1	.	-0.6	-11	-2%	1%	9%[15.4 µM]	-24
CCCCc1ccc(NC(=S)N2CCN(C)CC2)cc1	0.3%	5.2	-8	1%	4%	11%	.
Cc1cccc(C(=O)OC(C)CN2C(C)CCCC2C)c1 (stereo not given)	.	-13	11	1%	-5%	-3%	2
Cc1ccn2c(=O)nc(SCC(=O)c3ccccc3)nc2c1	?	.	10	-5%	.	14%	-7
Cc1ccc(S(=O)(=O)N2CCN(C(C(=O)Nc3ccc(F)cc3)c3ccccc3)CC2)cc1 (stereo not given)	-0.8%	0.9	4	-29%	19%	22%	-8
Nc1ccc2[nH]ncc2c1	4.1%	-8.8	-8	-29%	25%	.	-23
CCCSc1nnc(N2C(=O)CC(c3ccsc3)C3=C2CCCC3=O)s1 (stereo not given)	-4.2%	1.2	-8	-4%	6%	-52%[inhibitor]	-29
COc1cc(OC)cc(C(=O)c2c(C)c(C#N)c3ccccn23)c1	0.3%	-4.8	18	19%	4%	?	1
O=C(O)c1ccc(NCc2ccc3c(c2)OCO3)cc1	-5.6%	1.8	-1	-12%	7%	3%	-1
Cc1cc(C2=CC(=O)C[C@H](c3ccc4c(c3)OCO4)C2)ccc1F	-1.3%	.	-9	-9%	.	.	-4
Cc1[nH]c2ccccc2c1CCNS(=O)(=O)c1ccc(S(N)(=O)=O)cc1	-17%	-5.7	-2	-5%	12%	-2%[15.4 µM]	0
Cc1cc(C)cc(N(CC(=O)NC2CCCCC2)C(=O)CCCC(=O)Nc2ccccn2)c1	.	-8.0	-8	1%	11%	3%	-23
COc1cc(-c2noc(CCC(=O)NC3CCCCC3)n2)cc(OC)c1OC	.	-0.1	9	-10%	8%	22%	19
COc1ccccc1C(=O)NNC(=O)c1cccc(Br)c1	1.0%	-0.2	16	8%	8%	14%	-2
Clc1ccccc1OCCN1CCCCC1	-2.5%	1.4	-1	0%	-22%	-36%	1
Cc1c(C#N)c2ncn(CC#N)c(=O)c2n1-c1ccccc1	-0.6%	4.0	16	-3%[15.4 µM]	12%	-23%	3
Cc1ccc(-n2nnnc2SCC(=O)NCCC2=CCCCC2)c(C)c1	-2.5%	4.2	-7	-20%	6%	-5%	14
CC(C)(C)c1cc(C(=O)NNc2cccc(Cl)c2)n(Cc2ccccc2)n1	0.1%	0.9	0	?	12%	9%[15.4 µM]	2
O=C(O)c1ccccc1C(=O)c1cccc2c(F)cccc12	1.3%	.	.	?	.	?	-3
O=C(Nc1ccc(OC(F)(F)F)cc1)c1n[nH]c(Cn2cncn2)n1	-1.5%	4.4	-3	12%	27%	-28%	-3
CCC(C)c1ccc(O)c(/C=N/O)c1 (stereo not given)	1.2%	2.5	-6	4%	12%	7%	10
CCOC(=O)N1CCN(C2=NC3(CCCCC3)C(C#N)C(=O)N2)CC1 (stereo not given)	-2.2%	1.7	3	10%	5%	-34%[inhibitor]	-4
O=C(Nc1ccccc1C(=O)OCn1nnc2ccccc2c1=O)c1ccco1	-8.1%	0.4	0	9%	-16%	?	-12
COCCNC(=O)NC12CC3CC(CC(C3)C1)C2	0.1%	-0.7	-2	84%[activator]	8%	-5%	.
COc1ccc(Cl)cc1NC(=O)CN(C)C(=O)CCNC(=O)c1ccccc1OC	2.2%	.	-13	-9%	.	15%	.
Cc1ccc2c(C)nc(/N=C(\N)NC(=O)N3c4ccccc4Sc4ccccc43)nc2c1	-1.3%&-4.3%	0.4	6	9%&11%	11%	14%[15.4 µM]	-22&12
COCC(=O)N1CCC(Oc2ccc(C(=O)NCCCn3cccn3)cc2)CC1	0.4%	.	3	-17%	11%	-38%[inhibitor]	26
Cc1ccc(CNC(=O)COC(=O)c2c(C)noc2C)cc1	3.2%	-0.9	?	9%	8%	?	5
CS(=O)(=O)N(CC(=O)NCc1ccccn1)c1ccc2c(c1)OCCO2	0.7%	3.3	-10	2%	-4%	-98%[inhibitor]	6
Cc1nn(-c2ccccc2)c(Cl)c1/C=N/NS(=O)(=O)c1ccc(Br)cc1	0.7%	5.3	7	-31%	-9%	0%	-10
CCCc1[nH]c2ccc(C(=O)OC)cc2c1CCC	-12%	1.1	-27	-9%	9%	8%	.
CCC(c1nnnn1C(C)(C)CC)N(CCN1CCOCC1)Cc1cc2cc(C)ccc2[nH]c1=O (stereo not given)	-26%	4.2	1	-4%	-14%	-47%[inhibitor]	-9
Cc1ccc(C(=O)O)cc1-n1c(C)cc(C=O)c1C	.	-0.3	11	-6%	22%	1%	0
NS(=O)(=O)c1cc(C(=O)OCC(=O)Nc2ccccc2[N+](=O)[O-])ccc1Cl	-0.4%	-5.8	5	-3%	-2%	16%[15.4 µM]	0
CC(C(=O)NCCc1ccc(Cl)cc1)n1c(=O)c2cccn2c2cccnc21 (stereo not given)	-8.8%	0.1	14	-12%	3%	1%	.
O=C(COC(=O)c1ccc(Br)o1)Nc1cccc(S(=O)(=O)N2CCCCC2)c1	.	.	.	-5%	.	6%	-12
O=C(c1cccc(Br)c1)N1CCCc2ccccc21	0.3%	-0.4	11	9%	-1%	-16%	3
COC(=O)c1ccc(CO/N=C/c2ccc(OC)cc2)o1	.	0.4	8	-1%	5%	3%[15.4 µM]	-3
Cc1ccc2[nH]c(=O)c(C(c3nnnn3CC3CCCO3)N3CCCc4ccccc43)cc2c1 (stereo not given)	-3.7%	-2.8	-3	-29%	45µM*	-13%	-7
Cn1c(SCC(=O)NC2CCCC2)nc2cccnc21	0.8%	3.6	-10	?	24%	?	-6
CC1CCCCC1NC(=O)CCn1ccc2cc(S(=O)(=O)N3CCCC3)ccc21 (stereo not given)	-1.8%	5.8	12	-16%	22%	-12%	9
COc1ccc(C(=O)OCC(=O)Nc2sccc2C(N)=O)cc1[N+](=O)[O-]	-1.1%	.	12	-6%	.	?	-1
C=CCOC(=O)C1=C[C@H](C2CCCCC2)C[C@H](OCc2ccc(CO)cc2)O1	-0.9%	.	.	-10%	.	.	1
O=C(c1ccc(OC2CCN(CCc3ccccc3)CC2)cc1)N1CCCC(O)C1 (stereo not given)	.	-0.7	11	3%	19%	0%[15.4 µM]	2
OCC1(Cc2ccc(Cl)cc2)CCN(Cc2ccc(F)c(F)c2)CC1	-0.5%	0.9	2	18%	16%	21%	6
CC(C)(C)OC(=O)N1CCN(C(=O)c2[nH]cnc2C(=O)Nc2ccccc2F)CC1	-0.3%	.	.	.	.	-1%	-2
Cc1ccc(S(=O)(=O)NNC(=O)Nc2cccc(F)c2)c(C)c1	-2.6%	.	-8	1%	15%	-1%	-10
Cc1oc2cc3oc(=O)c(CCC(=O)NCc4ccccn4)c(C)c3cc2c1C	-7.6%	0.4	-7	-3%	23%	.	8
CC(=O)N(CCCCN1C(=O)c2ccccc2C1=O)c1ccc(C)cc1	-0.2%	1.8	13	2%	12%	1%	14
CCc1cc(=O)oc2cc(C)cc(OCC(=O)C(C)(C)C)c12	3.6%	1.4	-17	-10%	-2%	17%	.
CO/N=C/c1ccc(N2CCN(C(=O)c3ccc(Cl)cc3Cl)CC2)c([N+](=O)[O-])c1	-0.1%	6.6	-1	?	4%	-30%[inhibitor]	?
CCOc1ccc(CCNC(=O)CS(=O)Cc2nc(-c3ccccc3C)oc2C)cc1OCC (stereo not given)	-1.3%	.	?	-7%	-1%	-24%	.
O=C(CCN1CCOCC1)N1CCCC(Nc2ccc(F)cc2)C1 (stereo not given)	.	-3.1	7	8%	16%	13%	5
CCNC(=O)NC(=O)C(C)OC(=O)CCCc1nc2ccccc2s1 (stereo not given)	.	0.1	6	-1%	-1%	?	-3
COc1ccc(Cc2nnc(NC(=O)C(C)C)s2)cc1	.	-0.2	-1	8%	6%	-1%[15.4 µM]	-4
CCCCn1c(N)c(N(CCOC)C(=O)COc2ccc(C(C)=O)cc2)c(=O)[nH]c1=O	.	.	0	-3%	.	19%[15.4 µM]	10
COc1cc(O)cc(O)c1C(=O)/C=C/c1ccccc1	-0.1%	-2.1	20	?	-17%	.	-6
COc1ccc(OC)c(-c2csc(NC(=O)C3CSC4(C)CCC(=O)N34)n2)c1 (stereo not given)	8.0%	.	-7	-14%	.	-4%	-12
Cn1nc(-c2ccccc2)c(CN2CCN(c3ncccn3)CC2)c1Cl	1.9%	-0.2	-6	-10%	15%	0%	-15
CCOc1ccc(C(=S)N2CCCC2)cc1OC	-1.5%	5.4	-2	-14%	14%	29%	4

Following part
SMILES	ClpP mod	Menin MLL FP FL	TRPV1 PAM	gsp antagonist	Sfp PPTase inh	gsp agonist	CtBP-E1A inh
Cc1cn([C@H]2C[C@H](O)[C@@H](CNCc3ccc(-c4cc(Cl)ccc4C(F)(F)F)o3)O2)c(=O)[nH]c1=O	2.4%	.	.	.	.	43%	-1
COc1ccc(Nc2nccc(-c3ccc([N+](=O)[O-])cc3)n2)cc1	.	-1.4	8	-7%	7%	5%	-4
CC(=O)NCCn1c(SCC(=O)c2ccc(Cl)cc2)nc2ccccc2c1=O	0.1%	1.7	18	0%	1%	0%	4
O=C(CCCOc1ccccc1)Nc1ccc(Cl)cn1	.	1.5	-11	8%	2%	-5%[15.4 µM]	8
Cc1cc(NC(=O)c2c(F)cccc2Cl)n(-c2nc3ccccc3[nH]2)n1	-1.2%	4.7	-31	2%	?	-10%	-3
O=C1NCCN1C(=O)c1cccc(Cl)c1	-0.6%	1.9	-4	10%	28%	1%	5
Cc1ccc(S(=O)(=O)n2cnc3ccccc32)cc1[N+](=O)[O-]	-0.1%	2.7	11	4%	-1%	?	.
O=C(N/N=C/c1cccc(C(F)(F)F)c1)C1CCN(c2ncc(C(F)(F)F)cc2Cl)CC1	-1.1%	-0.4	?	10%	-7%	4%	9
CCOc1ccc(S(=O)(=O)Nc2nc3cc(OC)ccc3s2)cc1	0.6%	-0.3	10	?	6%	3%	-4
